HCMV NEC inh – inhibitors of HCMV UL50-UL53 nuclear egress complex interaction; HTRF UL50-UL53 interaction, normalized percent inhibition; inhibition, % (concentration not given with the values); 0.15% of 190,000 active; AID 1918969;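 active = both replicates at 50% or more, plus weaker picks with an unusually low signal ratio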;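 also: stock transfer was 100 nL into about 20 µL; 0% = negative control wells and 100% = wells with untagged competitor protein; inactives centre near -12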
Starred values were filed as active, the others as inactive; & = joins results of further samples.

Start of the data: the first 6 entries (preview)
SMILES	HCMV NEC inh
CCn1c(CCNC(=O)C(C)(C)C)nc2ccccc21	-19
C=CCc1cccc2cc(C(=O)OCC)c(=O)oc12	-68
Cc1cc(CN(C)C(=O)c2cc(-c3cnn(C(C)C)c3)nc3cc(F)ccc23)on1	36&36
COCc1nc2ccccc2[nH]1	-11
NS(=O)(=O)c1cccc(C(=O)N2CCCc3ccccc32)c1	-12
S=C(NCc1ccco1)SCc1cn2ccccc2n1	-7

The list itself, repeating the preview:
SMILES	HCMV NEC inh
CCn1c(CCNC(=O)C(C)(C)C)nc2ccccc21	-19
C=CCc1cccc2cc(C(=O)OCC)c(=O)oc12	-68
Cc1cc(CN(C)C(=O)c2cc(-c3cnn(C(C)C)c3)nc3cc(F)ccc23)on1	36&36
COCc1nc2ccccc2[nH]1	-11
NS(=O)(=O)c1cccc(C(=O)N2CCCc3ccccc32)c1	-12
S=C(NCc1ccco1)SCc1cn2ccccc2n1	-7
Cc1c(C(=O)N2CCCCC2)sc2nc(-c3ccccc3)cn12	-14
CC(C)OC(=O)CCC/C=C\C[C@@H]1[C@@H](/C=C/C(F)(F)COc2ccccc2)[C@H](O)C[C@@H]1O	-19&-19
Cc1cc2cc(CNC(=O)c3ccc4c(c3)OCO4)ccc2[nH]1	-10
Cc1cc2cc(CNC(=O)c3ccco3)ccc2[nH]1	-3
Cc1cc(NC(=O)CC(C)C)nc2c1c(=O)oc1ccccc12	-4
CCC1OC(=O)C(C)C(OC2C[C@@](C)(OC)C(O)C(C)O2)C(C)C(OC2OC(C)CC(N(C)C)C2O)[C@@](C)(O)CC(C)C(=O)C(C)C(O)[C@]1(C)O (some centres undefined)	-4
CN1CCC(NS(=O)(=O)c2ccc(I)cc2)CC1	-3
COc1ccc(NC(=O)CCCN2C(=O)/C(=C\c3ccco3)SC2=S)cc1	3&-2
Cc1nsc(NC(=O)NCCC2CCCCCC2)n1	-9
COc1cccc2ccc(CN3CCC4(CC3)C(=O)N(CCc3ccccc3)C(=O)N4C)nc12	-24
CCOC(=O)c1nn(Cc2ccc(OC)cc2)c2c1CN(C(=O)CSc1ncccn1)CC2	-2
COC(=O)[C@H]1[C@H]2C[C@H]3c4[nH]c5ccccc5c4CCN3C[C@@H]2CC[C@@H]1O	-12
Oc1ccc(Nc2nc(-c3ccc(Cl)cc3)cs2)cc1	-3&5&7&-21&-21
N#Cc1c(Sc2ccccc2)nc2sccn12	-9
O=C(C1=C(O)C(=O)N(Cc2cccnc2)C1c1ccncc1)c1cccs1 (centres undefined)	-18
COc1ccc(/C=C/c2cc(O)cc(O)c2)cc1O	-22&-22
O=C(O)c1cccn1-c1ccc(Br)cc1	5
COCC(C)Nc1ncnc2c1c(-c1ccccc1)cn2-c1ccccc1 (centres undefined)	-22
COC(=O)c1ccc(C)c(NC(=O)C(C)NC(=O)C(c2ccccc2)c2ccccc2)c1 (centres undefined)	7
COc1ccc(CN2CC(C(=O)NCc3ccccn3)CC2=O)cc1 (centres undefined)	-9
COc1ccc(OC)c(NC(=O)CC2Sc3ccccc3NC2=O)c1 (centres undefined)	11&4
CCCCc1cc2c(=O)c(-c3ccccn3)coc2cc1O	-17
COc1cccc2ccc(-c3nnc4ccccn34)nc12	31&31
CC(C)CNC(=O)[C@@H]1C[C@H](CN2CCOCC2)CN(Cc2ccc(O)cc2)C1	-4
Cc1ccc(-c2nc(C#N)c(NCc3ccco3)o2)cc1	-6
COc1cccc(/C(O)=C2\C(=O)C(=O)N(CCN(C)C)C2c2ccc(C(C)C)cc2)c1 (centres undefined)	-1
COc1cc(C(=O)Nc2sccc2C#N)cc(OC)c1OC	-11
COC(=O)c1ccc(C(=O)Nc2cc(C)on2)cc1	-6
COc1ccc(C(=O)NCCc2nc3ccccc3n2C)cc1OC	-13
Cc1ccc(-c2noc([C@@]34CC[C@@](C)(C(=O)O3)C4(C)C)n2)cc1Cl	-8&-8
Cc1c[nH]c(C=C2C(=O)Nc3ccccc32)c1CCC(=O)O	-19&-61&-96
Cc1cc(OCC(O)CN2CCN(Cc3ccc4c(c3)OCO4)CC2)cc(C)c1Cl (centres undefined)	2&-5
COc1ccc(-c2nc(SCC(=O)c3ccc(Cl)cc3)n[nH]2)cc1	9
COC1C=CO[C@@]2(C)Oc3c(C)c(O)c4c(O)c(c5c(c4c3C2=O)NC2(CCN(CC(C)C)CC2)N=5)=NC(=O)C(C)=CC=CC(C)C(O)C(C)C(O)C(C)C(OC(C)=O)C1C (some centres undefined)	-110
Cc1ccc(C23CC4CC(CC(C(=O)NC(C)C(N)=O)(C4)C2)C3)cc1 (centres undefined)	-12
CC(O)Cc1cn(CC2CCN(C(=O)C3CCCCCC3)CC2)nn1 (centres undefined)	-14
Cc1nc2c(C)cccn2c1C(=O)Nc1ccc(F)cc1F	-10
CCc1ccc(C(=O)CSc2ccccc2C(=O)O)cc1	-2
COC(=O)c1ccccc1-c1ccc(/C=C2\SC(=O)NC2=O)o1	-72&-62

Reprinted at random: two records from the list.
SMILES	HCMV NEC inh
Cc1c[nH]c(C=C2C(=O)Nc3ccccc32)c1CCC(=O)O	-19&-61&-96
Cc1ccc(-c2nc(C#N)c(NCc3ccco3)o2)cc1	-6

Carrying on:
SMILES	HCMV NEC inh
CCC(=O)NCCc1nc2ccccc2n1C	-16
CCCCC/C=C/C=C1/C(=O)C=C[C@@H]1C/C=C\CCCC(=O)O	-8&-8&-10&-10&-8
CCOC(=O)C1CSC(Cc2ccc(OCc3ccc([N+](=O)[O-])cc3)cc2)N1 (centres undefined)	-14
CCCCc1oc2ccc(NS(C)(=O)=O)cc2c1C(=O)c1ccc(OCCCN(CCCC)CCCC)cc1	-5&-2
CCc1c(C)[nH]n(-c2nn[nH]n2)c1=O	-13
N#CNC(=Nc1ccc(Cl)cc1)Oc1ccccc1	-14
NC(=O)CSc1nnc(-c2c[nH]c3ccccc23)n1-c1ccc(F)cc1	6
CCCCC[C@H](O)/C=C/[C@@H]1[C@@H](CCCCC(CC(=O)O)OC)[C@@H](O)C[C@H]1O (some centres undefined)	-14&-14
Cc1ccc2oc(=O)n(CCOc3ccccc3)c2c1	-8&3
COc1ccc2nc3oc(C(=O)NCc4ccco4)cc3cc2c1	-31
Cc1ccc(C(=O)NC(CC(C)C)C(=O)O)cc1 (centres undefined)	-14
O=C(CSc1nc2ccccc2c(=O)n1-c1ccccc1)N1CCCCC1	-16
Cc1[nH]c2ccccc2c1SCCNC(=O)C(C)C	-3
CCOC(=O)c1ccc2nc(NC(=O)C3CCCCC3)sc2c1	7
COc1ccc(NC(=O)CCS(=O)(=O)c2cc3[nH]c(=O)c(=O)[nH]c3cc2C)cc1	6

Compounds shown so far containing an aryl thioether with sulfur outside any ring:
SMILES	HCMV NEC inh
CCOC(=O)c1nn(Cc2ccc(OC)cc2)c2c1CN(C(=O)CSc1ncccn1)CC2	-2
N#Cc1c(Sc2ccccc2)nc2sccn12	-9
COc1ccc(-c2nc(SCC(=O)c3ccc(Cl)cc3)n[nH]2)cc1	9
CCc1ccc(C(=O)CSc2ccccc2C(=O)O)cc1	-2
NC(=O)CSc1nnc(-c2c[nH]c3ccccc23)n1-c1ccc(F)cc1	6
O=C(CSc1nc2ccccc2c(=O)n1-c1ccccc1)N1CCCCC1	-16
Cc1[nH]c2ccccc2c1SCCNC(=O)C(C)C	-3

(next part)
SMILES	HCMV NEC inh
COc1ccc(-c2ccc(C3C(C#N)=C(N)OC4=C3C(=O)CCC4)o2)cc1 (centres undefined)	-9&-27
CCOc1cccc2sc(NC(=O)c3ccccc3F)nc12	-3
CCCCC(CO)NC(C)CCc1ccc(O)cc1 (centres undefined)	-8
O=C1CSC(=S)N1c1cccc(C(F)(F)F)c1	-2
CC(C)(C)c1ccc(Cn2cnc(C#N)c2C#N)cc1	0
C[C@@H](NCc1cc(Br)cc2[nH]c(=O)c(=O)[nH]c12)P(=O)(O)O	2
O=C1CCCC2=C1C(c1cccs1)C1=C(CCCC1=O)O2	-5
O=C(Nc1cc(Cl)ccc1Cl)c1cccn(OCc2ccc(F)cc2)c1=O	1
COC(=O)c1ccccc1NC(=O)CSc1nc2ccccc2s1	-3
CC(=O)Oc1ccc2cc(-c3nc4ccccc4s3)c(=O)oc2c1	-14
CCC(=O)c1c[nH]c(C(=O)NC)c1	-2
CC1OC(OCC2OC(Oc3c(-c4ccc(O)c(O)c4)oc4cc(O)cc(O)c4c3=O)C(O)C(O)C2O)C(O)C(O)C1O (centres undefined)	-81&-144
COc1ccc(CCC(C)NC2CC(C)(C)NC(C)(C)C2)cc1 (centres undefined)	-25
O=C(O)CCC/C=C\C[C@H]1C(=O)C[C@@H](O)[C@@H]1/C=C/[C@@H](O)Cc1ccccc1	-27&-27
CC[C@H](C)[C@H](NC(=O)c1nc2ccccc2c(=O)[nH]1)C(=O)OC	44&44
O=[N+]([O-])c1cccc2c[nH]nc12	-78
COc1ccc(S(=O)(=O)N2CCN(C)CC2)c(C)c1C	-2
O=S(=O)(Nc1cc(-c2cccs2)nn1-c1ccc(F)cc1)c1cccc(F)c1	-22
CCCn1cc(S(=O)(=O)CC(=O)NC2CCCCC2)c2ccccc21	-9
CC1(C)OC2C[C@H]3[C@@H]4CCC5=CC(=O)CC[C@]5(C)[C@]4(F)C(O)C[C@]3(C)[C@@]2(C(=O)CCl)O1 (some centres undefined)	9
CC(C)n1c(CCNC(=O)c2ccccc2)nc2ccccc21	-18
CC(Oc1ccccc1)c1ccnc(N)n1 (centres undefined)	-16
Cc1ccc(F)cc1NC(=O)Cc1ncc(C(F)(F)F)cc1Cl	7
C=CCN1C(=S)SC2CS(=O)(=O)CC21C (centres undefined)	-4
CCOc1ccc(S(=O)(=O)Nc2cnc3ccccc3c2)cc1	-16
Cc1ccccc1Cn1cc(S(=O)(=O)CC(=O)Nc2nccs2)c2ccccc21	11
CCCCC[C@H](O)/C=C/[C@H]1C2CC(CO2)[C@@H]1CCCCCCC(=O)O (some centres undefined)	-24&-24
CC1CCCCN1CC(O)COc1ccc2ccccc2c1 (centres undefined)	-21
O=S(=O)(c1cccc2cccnc12)N1CCN(c2cccc(Cl)c2)CC1	-10
NC(=O)COc1ccc(Cl)cc1Cl	-13
Cc1csc2ncnc(-c3cccc4ncccc34)c12	-20&-20
Cc1occc1C(=O)Nc1ccccc1C(=O)N(C)Cc1ccccn1	-4
CCOC(=O)c1cc(C#N)c(N2CCN(C(=O)c3snnc3C)CC2)nc1C(F)(F)F	-14
N#CC1=C(N)Oc2n[nH]c(C(F)(F)F)c2C1c1cccnc1 (centres undefined)	3
CC1(C)CC(=O)N(CC(=O)NCc2cccs2)c2ccccc2S1	1
COc1ccc(OC)c(S(=O)(=O)NCc2cccnc2)c1	-2
CS(=O)(=O)c1ccc(C(=N)N)cc1	-25
COc1ccc(CN2CC(OCc3cccnc3)CN(C(=O)C3=NN(C)C(=O)CC3)CC2=O)cc1 (centres undefined)	-9
CCC(CO)NCC(O)Cn1c2ccccc2c2ccccc21 (centres undefined)	-9
Cc1ccc(-c2nn(C(C)(C)C)c3ncnc(N)c23)cc1	-8&4&-8
COC(=O)C1C(OC)C(OC(=O)c2cc(OC)c(OC)c(OC)c2)C[C@@H]2CN3CCc4c([nH]c5cc(OC)ccc45)[C@H]3C[C@H]12 (some centres undefined)	-16
O=C(O)C(Sc1ncccn1)c1ccccc1 (centres undefined)	-2
CC1CNc2c(cccc2S(=O)(=O)N[C@@H](CCCN=C(N)N)C(=O)N2CCC(C)CC2C(=O)O)C1 (some centres undefined)	-8
CC(C)C(NC(=O)c1ccc(F)cc1)C(=O)O (centres undefined)	-9
COc1ccc(C(CC(=O)O)N2Cc3ccccc3C2=O)cc1 (centres undefined)	2
O=[N+]([O-])c1ccc(-c2ccn[nH]2)cc1	13
O=C1c2c(O)cccc2[C@@H](O[C@@H]2O[C@H](CO)[C@H](O)[C@@H](O)[C@H]2O)c2cc(CO)cc(O)c21	-92
COc1ccccc1CNC(=O)c1cc(S(=O)(=O)N2CCCC(C)C2)ccc1F (centres undefined)	-2
CCCn1c[n+](CC(=O)C(C)(C)C)c2ccccc21	-22
Cc1ccc(C(=O)O)cc1S(=O)(=O)NCc1ccco1	8
CCOC(=O)N1CC(=O)Nc2ccc(Br)cc2C1c1ccccc1 (centres undefined)	-17
C=CC(=O)Nc1cccc(Sc2nc(Nc3ccc(N4CCN(C)CC4)cc3)ncc2Cl)c1	40
CCC(=O)NCCSc1c(C)[nH]c2ccccc12	5
CCc1nc(C)ccc1OCC(=O)N1CCc2[nH]nc(C3CCC3)c2C1	-10
CCCc1nc2ccccc2n1CCC	-17
C=CCNc1cc(C(F)(F)F)nc(-c2ccccn2)n1	-6
CCOC(=O)C(C)Oc1cc2oc(=O)cc(-c3ccccc3)c2cc1Cl (centres undefined)	1
C/C(=N\O)C(=O)c1ccc(Br)cc1	-2
CCN(Cc1ccncc1)C(=O)c1cc(-c2cnc(C)nc2)nc2c(C)cccc12	1
CC(=O)[C@@]1(O)CCC2C3CCC4=CC(=O)CC[C@]4(C)C3CC[C@@]21C (some centres undefined)	-15
COc1ccc(NC(=O)c2cc(OCCCN(C)C)nn2Cc2ccccc2)cc1	-6
CCN1CCN(Cc2ccc(NC(=O)c3cc(NC(=O)c4cc(-c5ccc(OC)cc5)n[nH]4)cc(OC)c3)cc2C(F)(F)F)CC1	8

Individual results from the entries so far.
`CCc1nc(C)ccc1OCC(=O)N1CCc2[nH]nc(C3CCC3)c2C1` @ HCMV NEC inh: -10
`C/C(=N\O)C(=O)c1ccc(Br)cc1` @ HCMV NEC inh: -2
`C=CC(=O)Nc1cccc(Sc2nc(Nc3ccc(N4CCN(C)CC4)cc3)ncc2Cl)c1` @ HCMV NEC inh: 40
`COc1ccc(NC(=O)c2cc(OCCCN(C)C)nn2Cc2ccccc2)cc1` @ HCMV NEC inh: -6
`O=C1c2c(O)cccc2[C@@H](O[C@@H]2O[C@H](CO)[C@H](O)[C@@H](O)[C@H]2O)c2cc(CO)cc(O)c21` @ HCMV NEC inh: -92

These rows are one share of the data (hit frequency here may not be typical).
